# KCNQ2 block – KCNQ2 potassium channel inhibitors, primary screen, cell-based, CHO-K1, FluxOR thallium flux, B-score (AID 2156); B-score at 10 µM; 310,000 tested, 1.1% active; Potassium voltage-gated channel subfamily KQT member 2 (Rattus norvegicus), O88943; 20 min; active compounds read low; only compounds with negative scores are shown here; some inactives read as strong as hits;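 active = fluorescence ratio B-score at most minus 3 library SDs, with starting brightness B-score within 2 library SDs, cut at about -5.5 in these data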
# Target sequence (O88943 whole entry, looked up): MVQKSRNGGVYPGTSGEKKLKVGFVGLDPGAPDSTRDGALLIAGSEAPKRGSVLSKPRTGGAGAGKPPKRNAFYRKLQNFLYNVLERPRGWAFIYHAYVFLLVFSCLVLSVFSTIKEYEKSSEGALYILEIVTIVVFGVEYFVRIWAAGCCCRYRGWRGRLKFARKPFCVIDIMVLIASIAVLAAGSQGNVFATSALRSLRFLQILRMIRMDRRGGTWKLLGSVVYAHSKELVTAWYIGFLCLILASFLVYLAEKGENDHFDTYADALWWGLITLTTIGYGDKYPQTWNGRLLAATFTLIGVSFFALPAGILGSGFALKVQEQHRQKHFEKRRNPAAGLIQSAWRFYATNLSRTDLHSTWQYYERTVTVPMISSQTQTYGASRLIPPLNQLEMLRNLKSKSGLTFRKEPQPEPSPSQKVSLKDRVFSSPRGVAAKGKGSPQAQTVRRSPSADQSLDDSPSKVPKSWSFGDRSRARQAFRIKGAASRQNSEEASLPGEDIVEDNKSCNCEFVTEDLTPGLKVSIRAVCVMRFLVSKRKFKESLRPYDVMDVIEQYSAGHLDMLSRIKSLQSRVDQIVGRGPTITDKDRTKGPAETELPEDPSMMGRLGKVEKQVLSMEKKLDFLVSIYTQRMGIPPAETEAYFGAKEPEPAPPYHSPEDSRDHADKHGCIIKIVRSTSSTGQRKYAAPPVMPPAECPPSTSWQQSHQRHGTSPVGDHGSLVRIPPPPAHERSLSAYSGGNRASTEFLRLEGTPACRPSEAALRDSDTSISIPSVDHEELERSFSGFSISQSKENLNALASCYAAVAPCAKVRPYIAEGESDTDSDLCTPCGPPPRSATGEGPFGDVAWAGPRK
# KCNQ2 block baseline – also measured in KCNQ2 block; calls as there; B-score; measured here: initial fluorescence intensity artifact check;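 brightness before thallium and not channel activity; 0 = typical well and far values either way flag optical interference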
# * = called active by the depositor; i = inactive. These rows are one share of the data; count on the stated rates, not on these rows.
Molecule	KCNQ2 block	KCNQ2 block baseline
O=S1(=O)CC(NCc2ccccc2)C(Nc2ccc(Cl)cc2)C1 (configuration not stated)	i	-0.39
O=C(CN1CCN(Cc2ccccc2)CC1)N/N=C/c1ccco1	i	0.05
Clc1ccc(-c2nnc(COc3ncnc4ccccc34)o2)cc1	i	0.89
Cc1ccccc1OCC(=O)N(Cc1ccc(N(C)C)cc1)C1CCS(=O)(=O)C1 (configuration not stated)	i	-0.56
COC(=O)c1[nH]c2ccccc2c1NC(=O)CN1CCN(c2cccc(Cl)c2)CC1	i	1.5
O=[N+]([O-])c1ccc(NCCc2ccccc2)c(Br)c1	i	-0.57
O=C(c1ccc2c(c1)OCO2)N(c1ccc(F)cc1)C1C=CS(=O)(=O)C1 (configuration not stated)	i	-0.03
COC(=O)c1cc(S(=O)(=O)N2c3ccccc3CC2C)cn1C (configuration not stated)	i	2.2
CCN1C(=O)/C(=C2\SC(=S)N(CCCOC)C2=O)c2ccccc21	i	1.2
Cc1ccc(NC(=S)Nn2cnnc2)cc1	i	0.24
Cc1ccc(NCc2nnc(SCCN3CCCCC3)n2CC2CCCO2)c(C)c1 (configuration not stated)	i	-2
COc1ccc(NC(=O)c2cccs2)cn1	i	0.23
CN(CC(=O)Nc1ccc(Cl)c(C(F)(F)F)c1)C(=O)c1cc(=O)[nH]c2ccccc12	i	-0.86
Cn1c(=O)c2c(ncn2CCN(CCO)Cc2ccccc2)n(C)c1=O	i	0.52
O=C(NCCCN1CCCC1=O)c1cccc(NS(=O)(=O)c2ccc(Br)cc2)c1	i	-0.14
CCOC(=O)C1=C(CS(=O)(=O)c2ccccc2)NC(=O)NC1c1cccc(OC)c1 (configuration not stated)	i	0.64
CC(Oc1ccccc1)C(=O)Nc1ccccc1F (configuration not stated)	i	-0.03
COc1ccc(C)cc1NCC(=O)Nc1ccc(C(C)(C)C)cc1	i	-0.22
Fc1cc(F)cc(NC(=S)NN2CCOCC2)c1	i	-0.61
O=C(c1ccco1)N1CCN(C(=O)C2CC2)CC1	i	1.8
CN(CC(=O)Nc1ccccc1C(F)(F)F)C(=O)C1CCN(S(=O)(=O)c2ccc3c(c2)OCCO3)CC1	i	-1.1
O=C(CSc1nnc(-c2ccccc2)n1-c1ccc(Cl)cc1)NC1CCS(=O)(=O)C1 (configuration not stated)	i	0.94
CC(=O)Oc1ccc(OC(C)=O)c(SCCCCCCl)c1	i	0.4
Cc1ccnc(NC(=O)c2ccc(NC(=O)c3ccco3)cc2)c1	i	0.73
COc1ccc(S(=O)(=O)N2CN(Cc3ccco3)c3nc4ccccc4nc32)cc1	i	0.02
CN1CCN(C(=O)COCc2cc(-c3ccc4c(c3)OCO4)on2)CC1	i	-0.21
O=C(NCc1ccccc1)[C@@H]1C[C@H]1[C@@H](NP(=O)(c1ccccc1)c1ccccc1)c1ccccc1	i	-0.4
COCCN(C(=O)CNC(=O)c1ccco1)C(C(=O)NC1CCCC1)c1cccs1 (configuration not stated)	i	-0.63
COc1ccccc1N1CCN(C(=O)CN(Cc2ccccc2)S(C)(=O)=O)CC1	i	-0.75
Cn1c(=O)c2c(nc(OCc3ccccc3)n2C)n(C)c1=O	i	-0.71
O=[N+]([O-])c1ccc(COn2nnc3ccccc32)cc1	i	1.4
CCOc1ccc(CCNC(=O)C2CCCN(C(=O)N(C)C)C2)cc1OCC (configuration not stated)	i	-0.08
COc1ccc(CCn2c(N)cc(=O)[nH]c2=O)cc1OC	i	1.8
COC(C(=O)NC1CC1)c1ccccc1 (configuration not stated)	i	-0.75
CCc1ccccc1NC(=O)CSc1nnc([C@H](CCSC)NC(=O)OC(C)(C)C)o1	i	0.35
c1ccc(-c2[nH]ncc2CN2CCc3ccccc3C2)cc1	i	0.04
Cc1cc(C)c2nc(N3CCC(C(=O)NCC4CCCO4)CC3)sc2c1 (configuration not stated)	i	-0.97
CCCn1cnc2c(sc3nc4c(cc32)CSC(C)(C)C4)c1=O	i	0.28
Cc1ccc(CN2CCN(CC(=O)NCc3ccccc3)CC2)cc1	i	-1.8
COC(=O)c1ccc(CSC(=N)N)o1	i	0.84
O=C(CCSc1nc(-c2ccco2)cc(C(F)(F)F)n1)NCCc1ccccc1	i	-0.13
COc1ccc(OCCN(C)CC(=O)Nc2ccccc2SC)cc1	i	0.35
CCOC(=O)c1cc(C)nc(S(C)(=O)=O)c1C#N	i	-1.4
Cc1cc(N(C(=O)c2ccco2)C(C(=O)NC2CCCCC2)c2ccccc2)ccc1-n1cnnn1 (configuration not stated)	i	-0.15
Cc1ccc(S(=O)(=O)N2CCN(C(=O)c3cc(=O)c4ccccc4o3)CC2)cc1	i	0.12
CCc1cc(C(=O)N(CCCOC)c2c(N)n(Cc3ccccc3)c(=O)[nH]c2=O)sc1C	i	0.82
Cc1ccc(Cn2c(=O)c3ccccc3n3c(CCC(=O)O)nnc23)cc1	i	-0.57
COc1ccc(CNC(=O)CN(C(=O)c2ccc(CN3CCOCC3)o2)C2CCCC2)cc1	i	-1.1

# Two entries from above, set out differently:
KCNQ2 block	KCNQ2 block baseline	canonical_smiles
i	0.84	COC(=O)c1ccc(CSC(=N)N)o1
i	0.28	CCCn1cnc2c(sc3nc4c(cc32)CSC(C)(C)C4)c1=O

# More structures.
Molecule	KCNQ2 block	KCNQ2 block baseline
CC(C)(C)c1ccc(S(=O)(=O)N2CCN(c3ccccn3)CC2)cc1	i	2.4
CC(=O)N1CCc2cc(S(=O)(=O)NC(C(=O)Nc3nc(C)cs3)C(C)C)ccc21 (configuration not stated)	i	1.2
O=[N+]([O-])c1cc(CN(CCO)CCO)ccc1O	i	-0.19
CCN(CC)c1ccc2cc(-c3nc4ccccc4n3C)c(=O)oc2c1	i	3.3
CC(C)C1CCN(C(=O)C2CCC(=O)N(CCc3ccc(Cl)cc3)C2)CC1 (configuration not stated)	i	0.93
COc1ccc(-c2c(C)nc3c(-c4ccc(F)cc4)cnn3c2N)cc1	i	4
CC(C)COc1nc2ccccc2nc1N1CCN(C)CC1	i	1.9
COC(=O)NNC(=O)C1CCC(C(=O)NNC(=O)OC)CC1 (configuration not stated)	i	-0.02
CCCCOc1ccc(C(=O)CCN2CCOCC2)cc1	i	1.1
Cc1[nH]c(=O)[nH]c(=O)c1/C=N/NC(=O)[C@@H](N)CC(C)C	i	0.12
Cc1ccccc1N1CCN(S(=O)(=O)c2ccc3ccccc3c2)CC1	i	-0.54
c1ccc(-c2noc(CSc3nnnn3C3CCCCC3)n2)cc1	i	0.03

# An excerpt of these results, with two lines to a compound:
# The line under a structure holds: KCNQ2 block, KCNQ2 block baseline
COC(=O)NNC(=O)C1CCC(C(=O)NNC(=O)OC)CC1 (configuration not stated)
  i, -0.02
CCCCOc1ccc(C(=O)CCN2CCOCC2)cc1
  i, 1.1
Cc1[nH]c(=O)[nH]c(=O)c1/C=N/NC(=O)[C@@H](N)CC(C)C
  i, 0.12
Cc1ccccc1N1CCN(S(=O)(=O)c2ccc3ccccc3c2)CC1
  i, -0.54

# Next compounds
Molecule	KCNQ2 block	KCNQ2 block baseline
COc1ccc(C(=O)NC(=S)NNC(=O)c2cccc(C)c2)cc1	i	1.6
CCN1CCN(c2c(Cl)cccc2NC(=O)c2cc3ccccc3o2)CC1	i	0.92
CN(C)c1cccc(C(=O)OC(C(=O)Nc2ccc([N+](=O)[O-])cc2Br)c2ccccc2)c1 (configuration not stated)	i	-0.7
CCn1c(=N)n(CC(=O)c2cccc([N+](=O)[O-])c2)c2ccccc21	i	0.91
CN(Cc1nc(Cc2ccccc2F)no1)Cc1cccc2ncccc12	i	0.06
Cc1ccc(C(=O)N/C(=C\c2ccc(C(C)C)cc2)C(=O)NCCCN2CCOCC2)cc1	i	0.65
CC(=O)Nc1ccc(S(=O)(=O)Nc2ccn(Cc3ccccc3Cl)n2)cc1	i	0.05
COc1ccccc1NC(=O)CCC(=O)OCc1ccc(Cl)cc1	i	-0.03
O=C(O)C(NC(=O)c1ccccc1)=C(Cl)Cl	i	1.3
COc1ccc(C(=O)N2CCC3(CC2)NCCc2[nH]cnc23)cc1	i	-1.1
CCN(CC)C(=O)CN1C(=O)C2(OCC(C)(c3ccccc3)CO2)c2ccccc21 (configuration not stated)	i	-0.34
O=C(COC(=O)C1(c2ccc(F)cc2)CCCC1)NCc1ccco1	i	2.2
COc1cc(OC)nc(N/N=C(\c2ccccc2)c2ccncc2)n1	i	1.2
CC1CCCN(CCCNC(=O)C2CCCN(c3ncnc4c3nc3n4CCCCC3)C2)C1 (configuration not stated)	i	0.2
Cc1ccc(NC2CCCN(C(=O)c3cccnc3)C2)cc1C (configuration not stated)	i	0.47
Cc1ccc(N2CCN(C(=O)c3cc(C(=O)c4ccccc4C)c[nH]3)CC2)c(C)c1	i	-0.26
COc1ccc(CN2CCN(C(=O)c3cccc4ccccc34)CC2)cc1OC	i	-0.22
CCOc1ccc(N(C)C(=O)CCc2nnc3ccc(N4CCC5(CC4)OCCO5)nn23)cc1	i	-0.31
N#C/C(=C\c1cccs1)Sc1nc2ccccc2s1	i	-1.8
CCc1nc(N2CCN(C(=O)c3ccco3)CC2)c2oc3ccccc3c2n1	i	-0.95
COc1ccc(S(=O)(=O)N2CCCCC2C(=O)O)cc1OC (configuration not stated)	i	-0.67
CC1CC(C)CN(S(=O)(=O)c2ccc(C(=O)N3CCN(c4ccccc4)CC3)cc2)C1 (configuration not stated)	i	-0.02
O=C(CSc1nccc(=O)[nH]1)Nc1ccc2c(c1)OCCO2	i	-1.1
O=C(NO)c1cc(OCC(F)(F)F)ccc1OCC(F)(F)F	i	6.6

# The list goes on (two carried over from the part before).
Molecule	KCNQ2 block	KCNQ2 block baseline
O=C(CSc1nccc(=O)[nH]1)Nc1ccc2c(c1)OCCO2	i	-1.1
O=C(NO)c1cc(OCC(F)(F)F)ccc1OCC(F)(F)F	i	6.6
COc1ccc(Cl)cc1C(=O)NNC(=O)c1ccncc1	i	0.48
COc1ccc(/C=N/n2c(COc3ccccc3)n[nH]c2=S)cc1OC	i	-2.4
COc1ccc(Cl)cc1N(CC(=O)NC1CC2CCC1C2)S(=O)(=O)c1ccccc1 (configuration not stated)	i	0.13
COc1cccc2cc(C(C)N(CCCN3CCOCC3)C(=S)Nc3ccc(C)cc3)oc12 (configuration not stated)	i	1.3
Cc1ccc(S(=O)(=O)Nc2c(C)ccc3nsnc23)cc1	i	-1.3
COC(=O)c1ccc(C)c(NC(=O)c2ccc(CN3CCc4ccccc4C3)cc2)c1	i	0.61
CCCCCCc1cc2cc(-c3nnc(-c4ccccc4OC)o3)c(=O)oc2cc1O	i	34
Cc1ccc(SCC(=O)N(C)CC(=O)Nc2cccc(F)c2)c(C)c1	i	-1.3
COc1ccc(N(C(=O)c2ccncc2)S(=O)(=O)c2ccccc2)cc1	i	-0.85
CC(=O)Cc1nsc(NC(=O)c2cccs2)n1	i	1
CC(=O)c1ccc(C(=O)N2CCCC(Nc3ccccc3)C2)s1 (configuration not stated)	i	0.36
CCOC(=O)c1cnc2oc3ccccc3n2c1=O	i	0.03
Clc1ccc(Nc2nc(NCCN3CCOCC3)nc(N3CCOCC3)n2)cc1	i	-2.2
CC(C)C(NC(=O)c1ccc(Br)cc1)C(=O)NC1=NCCS1 (configuration not stated)	i	-0.99
CC1CCN(c2nc3c(c(=O)[nH]c(=O)n3C)n2Cc2ccccc2Cl)CC1	i	0.04
CCOc1ccc(N2CC(C(=O)Nc3cccc(S(=O)(=O)N4CCCCC4)c3)CC2=O)cc1 (configuration not stated)	i	-1.2
CCNC(=O)COc1cc(C)c(Br)c(C)c1	i	-0.42
Cn1c(C(=O)N2CCN(Cc3ccccc3)CC2)cc2c(=O)n(C)c3ccccc3c21	i	-0.44
Cc1ccc2c(c1)c1nnc(SCC(=O)Nc3cccc(Cl)c3C)nc1n2CC(=O)O	i	0.61
Cc1ccc(C(=O)Oc2ccc3c(c2)ncn3C)cc1	i	1.5
CC(=O)c1sc(NC(=O)CCS(=O)(=O)c2ccccc2)nc1C	i	0.58
CC(C)N(C(=O)CSc1nn2c(=O)c(C(C)(C)C)nnc2s1)c1ccccc1	i	0.75
Cc1nnc(SCc2nnc(-c3ccccc3Br)o2)s1	i	-1.4
COCCN(CC1CCCN(C2Cc3ccccc3C2)C1)C(=O)c1cccs1 (configuration not stated)	i	-1.3

# Profiles, looked up by structure. Values in the order: KCNQ2 block | KCNQ2 block baseline
# N#C/C(=C\c1cccs1)Sc1nc2ccccc2s1 is listed as i | -1.8
# COC(=O)c1ccc(CSC(=N)N)o1 is listed as i | 0.84

# Next section.
Molecule	KCNQ2 block	KCNQ2 block baseline
Cc1cc(C(=O)Nc2ccc(Br)cc2F)n(-c2ccccc2)n1	i	0.72
CN(C)CCC(O)(c1ccccc1)c1ccccc1	i	1.7
Cc1ccc(C(c2nnnn2CC2CCCO2)N2CCN(c3cccc(C)c3C)CC2)cc1 (configuration not stated)	i	-0.06
Cc1ccc(-c2nn(-c3ccccc3)cc2CC(=S)N2CCOCC2)cc1	i	-0.29
CCc1nnc(NC(=O)CCc2ccc(C)o2)s1	i	0.01
CCOCCn1ccc2c(OCC(=O)Nc3ccc(OC)cc3OC)cccc2c1=O	i	-0.71
COC(=O)c1ccccc1S(=O)(=O)N1CCC(C(=O)NCC2CCCO2)CC1 (configuration not stated)	i	-1.7
O=C(O)C(Cc1ccccc1)N1C(=O)c2c(Cl)c(Cl)c(Cl)c(Cl)c2C1=O (configuration not stated)	i	1.3

# Source: PubChem (Johns Hopkins Ion Channel Center)
